# Env fusion inh: inhibitors of HIV-1 Env-driven cell-cell fusion, primary screen, HeLa-JRFL effector, CEM21 target cells, luciferase | inhibition, % at 12.3 µM | 360,000 tested, 1.1% active | AID 651610, 2012;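 active = mean replicate inhibition score of at least 50 and every replicate individually at or above 50; inconclusive = only one of the two criteria met; inactive = mean below 50 and not all replicates reaching 50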;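 also: 0% = plate neutral controls and 100% = maraviroc near 300 nM; one replicate is shown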
# UUG fidelity: modulators of yeast start codon fidelity, primary screen, whole organism, S. cerevisiae, single point, plate reader | S. cerevisiae UUG-firefly luciferase reporter, luminescence/redox ratio | activity score, % at 18.7 µM | 350,000 tested, 0.13% active | AID 602363, 2012;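 active = replicate mean at a twofold rise or more, about +100% in these data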;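 also: firefly luciferase made from a UUG start codon reports start codon fidelity; reporter light over untreated wells divided by growth signal over untreated wells; some hits fall short of that in this replicate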
# MT1-MMP act inh: blockers of MT1-MMP proenzyme processing, primary screen, HT1080 RFP-PRO-GFP cells, GFP/RFP fluorescence | Matrix metalloproteinase-14 (Homo sapiens), P50281 | GFP/RFP ratio fluorescence, overnight; percent of plate control window, DMSO zero | GFP/RFP ratio change, % at 20 µM | 360,000 tested, 0.061% active | AID 651647, 2012;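 active = GFP/RFP ratio change of at least 30% with cell ATP level not reduced by more than half and red fluorescence within 50% of control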; also: strong numbers were not always called active
#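 Test system: HT1080 RFP-PRO-GFP cells; Benchmarks: DMSO and RFP-L50D-GFP cell wells; Timing: cells overnight before dosing, compound overnight, 37 °C, 5% CO2; Compound: one 20 µM compound dose with 1% DMSO; Read-out: GFP/RFP fluorescence ratio.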
# PABP polyA inh: PABP poly(A) RNA binding inhibitors, primary screen, biochemical, fluorescence polarization, uHTS | Polyadenylate-binding protein 1 (Homo sapiens), P11940 | inhibition, % at 35 µM | 290,000 tested, 1% active;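 active = 50% or more with normal probe brightness, or confirmed in later tests; inconclusive = above 50% with abnormal brightness, or retests that disagree; inactive = below 50% or failed in later tests; about a fifth of its hits are not listed in these tables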;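 also: calls also rest on retests at 20 µM and on dose response follow-up; controls were probe without protein and protein plus probe with vehicle; some compounds called inactive have numbers as strong as hits; many hits fall short of the cut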
# eIF4H FP inh: human eIF4H binding inhibitors, primary screen, translation initiation inhibitor project, biochemical, uHTS, fluorescence polarization; Eukaryotic translation initiation factor 4H (Homo sapiens), Q15056; eIF4H fluorescence polarization binding assay; inhibition, % at 35 µM; 290,000 tested, 0.94% active; AID 2012, 2009;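 active = 50% or more with normal probe brightness, or confirmed in later tests; inconclusive = above 50% with abnormal brightness, or retests that disagree; inactive = below 50% or failed in later tests; about a fifth of its hits are not listed in these tables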;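 also: calls also rest on retests at 20 µM and on dose response follow-up; 0% = protein and probe with vehicle and 100% = probe without protein; strong numbers were not always called active; many hits fall short of the cut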
# Rce1 inhib: yeast Rce1p protease inhibitors, primary screen, biochemical, fluorescence, cell-free homogeneous; CAAX prenyl protease 2 (Saccharomyces cerevisiae (strain ATCC 204508 / S288c)), Q03530; yeast membranes, quenched prenylated peptide cleavage fluorescence; calls only; 290,000 tested, 0.27% active; AID 2563, 2010;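 active = fall in fluorescence gain of 50% or more versus controls, with final raw signal at or below 3038400; inconclusive = same 50% fall but final raw signal above 3038400; inactive = fall in fluorescence gain under 50%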;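 also: plate controls were neutral control wells for no effect and wells lacking membranes for full effect; tested at 10 µM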
# Target sequence (Q03530 whole entry, looked up): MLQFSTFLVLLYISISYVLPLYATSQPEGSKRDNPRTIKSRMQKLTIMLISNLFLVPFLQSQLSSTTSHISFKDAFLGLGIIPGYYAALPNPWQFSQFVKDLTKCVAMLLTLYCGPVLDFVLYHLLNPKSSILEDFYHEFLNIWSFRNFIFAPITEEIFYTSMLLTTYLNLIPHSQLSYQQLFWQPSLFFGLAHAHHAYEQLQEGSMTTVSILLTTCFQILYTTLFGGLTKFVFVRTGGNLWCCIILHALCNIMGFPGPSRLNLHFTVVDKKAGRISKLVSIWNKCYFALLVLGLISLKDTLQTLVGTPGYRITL
# CSC inhib: cancer stem cell viability inhibitors, primary screen, luminescence; cancer stem cell-like cells viability; inhibition, % at 7.5 µM; 300,000 tested, 1.1% active;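 active = mean at 75% or more and at least half the replicates too; inconclusive = mean and replicates disagree; tested in HMLE shEcad cells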;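 also: 0% = median of negative and 100% = median of positive control wells; the first replicate is given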
# eIF4H FP inh retest: also measured in eIF4H FP inh; calls as there; inhibition, %; compound at 20 µM; confirmation average;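 mean of two retest wells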
# PABP polyA inh retest: second read-out of PABP polyA inh, no call of its own (marks repeat the call); inhibition, %; compound at 20 µM; confirmation repeats;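 mean of two retest wells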
# MT1-MMP act inh RFP: recorded beside MT1-MMP act inh, whose call it bears; RFP signal change, %; measured here: RFP expression control read;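 0 = vehicle wells; hits needed this value within 50% of zero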
# An asterisk follows results filed as active; i = inactive; ? = inconclusive; · = no result given; + = active, no number.
SMILES,Env fusion inh,UUG fidelity,MT1-MMP act inh,MT1-MMP act inh RFP,PABP polyA inh,eIF4H FP inh,Rce1 inhib,CSC inhib,others
COc1cc(C2CC(=O)c3cnc(NC(=O)c4ccco4)nc3C2)cc(OC)c1OC (configuration not stated),9,2,4,0,18,4,·,-13,
CCCc1nc2ccccc2c(=O)n1NC(=O)c1c(O)c2ccccc2n(C)c1=O,21,·,-17,-8,11,10,i,13,
C=CCn1c(SCC(=O)Nc2nc(C)cs2)nnc1C(NC(=O)c1ccccc1)C(C)C (configuration not stated),112*,-13,2,2,-5,2,i,-12,
CN1C(=O)NC(=O)C1c1ccccc1 (configuration not stated),6,-7,3,7,·,·,·,·,
CCCn1c(=O)c2c(nc3n2CCS3)n(C)c1=O,12,·,5,9,6,-2,i,-10,
Nc1ncnc2c1ncn2[C@@H]1O[C@H](C(=O)N[C@@H](CO)c2ccccc2)[C@@H](O)[C@H]1O,-28,-10,0,6,·,·,·,·,
O=C(COC(=O)c1c(Cl)cccc1Cl)Nc1ccccc1Br,4,-19,-3,3,20,7,i,·,
Cc1ccc(S(=O)(=O)N2CCN(CCO)CC2)cc1-c1nnc2c3ccccc3c(C)nn12,-59,-8,2,0,·,·,i,-16,
Cc1ccc(CNC(=O)CS(=O)(=O)c2cn(CC(=O)N3CCOCC3)c3ccccc23)cc1,-38,3,-2,0,-4,-1,i,-2,
COc1ccc(CN2C(=NC(=O)c3ccccc3)SC3CS(=O)(=O)CC32)cc1OC (configuration not stated),17,-3,3,1,·,·,i,-17,
CC(C)CC(CO)N1CCN(C(=O)c2ccc(Cl)cc2)CCC1=O (configuration not stated),24,-14,-3,-2,·,·,i,-4,
CCC(OCC(O)CN1CCCCC1)c1ccccc1 (configuration not stated),0,1,2,5,-8,-13,i,-5,
O=C(COc1ccccc1)Nc1nnc(S(=O)(=O)N2CCCC2)s1,-2,-12,0,3,20,24,i,-10,
CCOCCCNC(=O)Cn1cnc2c(cnn2-c2ccc(C)c(C)c2)c1=O,-10,-8,-3,-3,-7,2,i,-12,
O=C(NC1CC2CCCC(C1)N2C(=O)NCc1ccccc1)C1CC1 (configuration not stated),-36,-18,-4,-2,-2,4,i,·,
CC(Sc1ccccc1)C(=O)N1CCN(S(=O)(=O)c2ccc(Cl)cc2)CC1 (configuration not stated),10,-2,1,3,-2,5,i,4,
Cc1onc(-c2ccccc2Cl)c1C(=O)Nc1cnn(Cc2ccccc2)c1,-9,-14,-3,-3,5,10,i,-2,
O=C(N/N=C/c1cccn1-c1ccc([N+](=O)[O-])cc1)c1cccnc1,-10,-16,-19,-9,-3,7,i,-5,
COc1ccc(N(C(=O)Cn2nnc(-c3ccc(C)o3)n2)C(C(=O)NC2CCCC2)c2ccncc2)cc1 (configuration not stated),13,-30,0,6,-1,-11,i,-18,
Cc1ccc(NC(=O)COC(=O)c2ccccc2Nc2ccccc2)cc1,-1,·,2,4,-6,2,i,-3,
O=C(CN(CC1CCCO1)C(=O)CNS(=O)(=O)c1ccc(Cl)cc1)NCc1ccccc1 (configuration not stated),10,0,0,0,0,43,i,1,
Cc1ccc(S(=O)(=O)Nc2cccc(Cl)c2)cc1NC(=O)C1CC1,·,2,-1,-7,·,·,·,2,
Cn1cccc1Cc1nnc(SCC(=O)Nc2ccc3c(c2)OCO3)n1-c1ccc(F)cc1,18,-8,3,4,-1,-6,i,-2,
COc1ccc(N(CC(=O)N2CCCCC2)S(=O)(=O)c2ccccc2)c(OC)c1,·,-15,-1,0,-5,0,i,-5,
Cc1ccc(-n2nnnc2SCC(=O)NNC(=O)c2ccc([N+](=O)[O-])cc2)cc1,1,·,5,4,-20,-18,i,-12,
O=S(=O)(c1ccc(Cl)cc1)N1CCC2(CC1)OCCO2,1,2,-5,-2,-6,-12,i,4,
O=C(NC(Cc1ccccc1)C(=O)NC1CC1)OCc1ccccc1 (configuration not stated),6,-9,10,-5,-15,-8,i,-10,
COCCNc1oc(-c2ccco2)nc1S(=O)(=O)c1ccccc1,·,-18,-2,3,-6,-9,·,-8,
CN(Cc1ccc(OCC(O)CN2CCCCC2)cc1)Cc1ccnc2ccccc12 (configuration not stated),5,13,-7,-22,4,1,i,·,
Clc1ccc(OCCN2CCCCC2)c(Cl)c1,·,-7,2,1,14,-5,i,-11,
CN(C)Cc1c(O)c(Cl)cc2c3c(c(=O)oc12)CCCC3,·,-14,-2,5,50*,64*,?,-4,eIF4H FP inh retest=78*;PABP polyA inh retest=67*
CC(C)N(Cc1nc(-c2ccccc2)no1)C(=O)COc1ccccc1,20,-19,-3,-1,-5,-2,i,·,
CN(C)S(=O)(=O)c1ccc(N2CCCC2)c(C(=O)NNC(=O)c2ccc(F)cc2)c1,·,-10,5,5,·,·,·,5,
Cc1cccc(NC(=O)CN2NS(=O)(=O)c3ccccc3C2=O)c1,-53,-16,-4,4,-4,-8,i,-4,
Cn1c(=NC(=O)c2cccc([N+](=O)[O-])c2)sc2ccccc21,-105,-12,-6,-2,0,-6,i,-3,
O=C(CCSCc1ccccc1F)NCc1ccc(F)cc1,3,-11,8,6,-6,10,i,-10,

# 10 structures out of the list, sorted by heavy-atom count, rising:
SMILES,Env fusion inh,UUG fidelity,MT1-MMP act inh,MT1-MMP act inh RFP,PABP polyA inh,eIF4H FP inh,Rce1 inhib,CSC inhib,others
Clc1ccc(OCCN2CCCCC2)c(Cl)c1,·,-7,2,1,14,-5,i,-11,
CCCn1c(=O)c2c(nc3n2CCS3)n(C)c1=O,12,·,5,9,6,-2,i,-10,
Cn1c(=NC(=O)c2cccc([N+](=O)[O-])c2)sc2ccccc21,-105,-12,-6,-2,0,-6,i,-3,
CC(C)CC(CO)N1CCN(C(=O)c2ccc(Cl)cc2)CCC1=O (configuration not stated),24,-14,-3,-2,·,·,i,-4,
O=C(NC1CC2CCCC(C1)N2C(=O)NCc1ccccc1)C1CC1 (configuration not stated),-36,-18,-4,-2,-2,4,i,·,
CCOCCCNC(=O)Cn1cnc2c(cnn2-c2ccc(C)c(C)c2)c1=O,-10,-8,-3,-3,-7,2,i,-12,
Cc1ccc(-n2nnnc2SCC(=O)NNC(=O)c2ccc([N+](=O)[O-])cc2)cc1,1,·,5,4,-20,-18,i,-12,
CCCc1nc2ccccc2c(=O)n1NC(=O)c1c(O)c2ccccc2n(C)c1=O,21,·,-17,-8,11,10,i,13,
CN(Cc1ccc(OCC(O)CN2CCCCC2)cc1)Cc1ccnc2ccccc12 (configuration not stated),5,13,-7,-22,4,1,i,·,
O=C(CN(CC1CCCO1)C(=O)CNS(=O)(=O)c1ccc(Cl)cc1)NCc1ccccc1 (configuration not stated),10,0,0,0,0,43,i,1,

# The results go on:
SMILES,Env fusion inh,UUG fidelity,MT1-MMP act inh,MT1-MMP act inh RFP,PABP polyA inh,eIF4H FP inh,Rce1 inhib,CSC inhib,others
CCCN1C(=O)/C(=C/c2ccc(C)s2)NC1=S,-25,-14,-3,-2,6,7,i,-7,
CC(C)c1ccc(-c2nc(N3CCOCC3)[nH]c(=O)c2C#N)cc1,·,6,2,5,-3,-2,i,4,
COC(=O)c1cc(CNC(=O)c2cccc(Cl)c2)ccc1OC,9,-4,6,3,0,8,i,-12,
CCC1C(=NO)C(CC)C(c2ccccc2)NC1c1ccccc1 (configuration not stated),30,-9,-37,-30,3,1,i,64,
COc1cc2c(cc1OC)CC(=O)NC=C2,-4,·,-2,2,30,2,i,0,
CCOc1ccc(NC(=O)CC2C(=O)N(c3ccc(OC)c(Cl)c3)C(=S)N2C2CC2)cc1 (configuration not stated),-25,-6,10,4,0,7,i,2,
COc1ccc(CNC(=O)C2CCCN(S(=O)(=O)c3ccc(F)cc3)C2)cc1 (configuration not stated),8,-2,0,0,10,8,i,6,
O=C(CCN1CCN(Cc2ccccc2)CC1)Nc1ccccc1Cl,-5,·,3,3,8,3,i,1,
O=[n+]1c2c(n([O-])c3cc(Cl)ccc31)CCCC2,·,-21,1,15,-2,-4,i,-4,
C=CCN(CC=C)CCOc1ccccc1F,-9,·,0,8,12,5,i,-19,
Cc1ccc(CNCc2cccnc2)cc1,-18,-14,-8,1,15,1,i,-12,
COc1ccccc1/C=N/NC(=O)c1cccc(NC(=O)c2ccccc2C)c1,-2,-8,-3,1,4,-7,·,-6,
CCOc1ccc(CCNC(=O)c2c(C)nn(-c3ccccc3)c2Cl)cc1OCC,7,-9,3,-1,1,-5,i,-13,
CCc1ccc2nc(NC(=O)c3ccc4c(=O)[nH]c(CN5CCOCC5)nc4c3)sc2c1,·,·,·,·,-6,-1,i,0,
CCOC(=O)CN1C(=O)S/C(=C/c2ccc(OCc3ccc(C(=O)O)cc3)cc2)C1=O,3,-4,-4,-1,10,12,i,0,
COc1ccc(-c2nc(CCNC(=O)c3ccco3)cs2)cc1OC,13,13,-6,-2,-12,-2,i,-6,
COCCNC(=O)/C(C#N)=C/c1cn(CC(=O)NCc2ccco2)c2ccccc12,8,-20,-3,1,3,-1,i,-17,
Cc1ccc(S(=O)(=O)Cn2nnnc2C(c2ccc(F)cc2)N2CCCCC2)cc1 (configuration not stated),·,-11,-7,-10,-10,-6,i,0,
O=C(NCC1(O)CCCCC1)C1CCC(=O)N(CCc2ccccc2)C1 (configuration not stated),·,-5,0,-1,5,5,i,-9,
Oc1ccc(C(=S)N2CCCCCC2)cc1,-32,-27,-1,0,-4,-2,i,-19,
CCOC(=O)c1csc(N/N=C2\CCCc3ccccc32)n1,-10,-18,-1,-6,-6,-4,i,10,
COc1ccc(Cl)cc1CN1CCOCC1,3,-8,2,-1,5,4,i,-6,
Oc1ccc(Cl)cc1CNCc1ccc(F)cc1,-5,-20,0,2,·,·,·,10,
COc1cccc(C(=O)Nc2ccccc2F)c1,2,-5,-3,1,5,2,i,0,
CC(C)(C)CC(=O)Nc1ccc(S(=O)(=O)N2CCCC2)cc1,3,-5,4,1,7,-7,i,·,
CCOc1ccc(C(=O)COC(=O)Cn2[nH]c(=O)c3ccccc3c2=O)cc1,-6,18,-3,2,·,·,·,·,
CCS(=O)(=O)Nc1c(C(=O)O)[nH]c2ccccc12,9,-14,2,3,18,-2,+,-7,
O=C(OCC#CCSc1nnc(-c2ccc(Br)cc2)o1)c1ccco1,10,0,2,3,-5,-2,i,-10,
O=C(NC1CC(=O)N(c2ccc3c(c2)OCCO3)C1)N1CCCCC1 (configuration not stated),-2,-15,16,2,·,·,i,8,
O=C(CCNC(=O)C1CCN(S(=O)(=O)c2ccccc2)CC1)NCCc1ccc(Cl)cc1,5,-10,1,-6,6,-9,i,-16,
CN(C)S(=O)(=O)c1ccc(C(=O)OCC2CC2(Cl)Cl)cc1 (configuration not stated),-21,4,-2,0,4,-11,i,12,

# Source: PubChem BioAssay
